# GIV Gai3 FP = inhibitors of GIV peptide binding to Galpha-i3, primary screen, biochemical, fluorescence polarization, FITC-GIV GBA peptide, rat Galphai3. Guanine nucleotide-binding protein G(i) subunit alpha-3 (Rattus norvegicus), P08753. 90 min; active compounds read low; scaled: aluminum fluoride 0%, vehicle 100%. percent of control (FP), % (concentration not given with the values). actives 0.42% (n = 210,000);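 active = replicate mean at 85% of control or lower, very high polarization wells dropped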;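 note: wells of about 15 µL received 100 nL stock; the first replicate is given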
# Target sequence (P08753 whole entry, looked up): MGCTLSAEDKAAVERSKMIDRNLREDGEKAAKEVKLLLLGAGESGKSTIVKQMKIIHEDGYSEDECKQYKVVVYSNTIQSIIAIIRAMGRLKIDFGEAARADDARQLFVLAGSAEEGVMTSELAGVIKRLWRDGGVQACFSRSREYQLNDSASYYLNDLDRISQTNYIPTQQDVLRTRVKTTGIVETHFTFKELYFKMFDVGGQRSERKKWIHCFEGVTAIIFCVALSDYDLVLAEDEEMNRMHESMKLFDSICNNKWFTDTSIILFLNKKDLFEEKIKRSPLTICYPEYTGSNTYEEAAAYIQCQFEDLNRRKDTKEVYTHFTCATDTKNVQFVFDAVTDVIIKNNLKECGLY
# Sa growth inh = S. aureus growth inhibition at 42 and 30 °C, primary screen, LtaS inhibitor project, RN4220, two temperatures; AID 720641, 2013; OD600, 20 h, 42 °C; active compounds read low; relative growth, % (test concentration not listed); actives 0.53% (n = 170,000);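 active = growth at 42 °C up to 50% and 20 or more points under that at 30 °C, or under 10% at both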;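 note: 300 nL library stock went into each well; scaled to the means of positive and negative controls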
# HCMV UL50-53 inh = inhibitors of HCMV UL50-UL53 interaction, biochemical, HTRF. inhibition, % (concentration not given with the values). HCMV UL50-UL53 nuclear egress complex (human cytomegalovirus). normalized percent inhibition. AID 1918969, 2023. actives 0.15% (n = 190,000);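 active = both replicates at 50% or more, plus weaker picks with an unusually low signal ratio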;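 note: stock transfer was 100 nL into about 20 µL; 0% = negative control wells and 100% = wells with untagged competitor protein; inactives centre near -12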
# Sa growth inh second temp = further read-out of Sa growth inh, marked with its call; relative growth, %; measured here: growth at 30 °C;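 optical density after 20 h as mean of two plates; 100% = untreated growth and lower means inhibition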
# An asterisk follows results filed as active; x = not tested or not shown.
[1] O=C1CCCN1CCCNc1nc(-c2cccc(Cl)c2)c2c(n1)-c1ccccc1OC2
[2] CCS(=O)(=O)N1CCc2cc(C(=O)Nc3ccc(OC)c(Cl)c3)ccc21
[3] O=C(Nc1cccc(F)c1)c1cnc2sc(N3CCCC3)nn2c1=O
[4] Cc1cc(O)cc(O)c1C(=O)COc1ccccc1
[5] O=C(CC1CCN(C(=O)C2CCCCC2)CC1)NCCc1c[nH]c2ccc(Cl)cc12
[6] Nc1sc2c(c1C(=O)Nc1ccc(Cl)cc1)CCC2
[7] CCOC(=O)C1CCN(c2cc3c(cc2NC(=O)c2cccc(C)c2)n(C)c(=O)n3C)CC1
[8] Cc1csc(NC(=O)CN2C(=O)COc3ccc(Cl)cc32)n1

compound no.,1,2,3,4,5,6,7,8
GIV Gai3 FP,99.2,100.9,100.0,x,96.9,x,101.1,104.0
Sa growth inh,57.7,104.0,83.4,106.2,x,81.8,x,98.4
Sa growth inh second temp,44.5,81.3,85.0,81.3,x,53.5,x,80.1
HCMV UL50-53 inh,x,-4.4,x,9.5,-31.6,-10.1,-25.0,-16.7

[9] CCCCC(=O)Nc1nnc(S(=O)(=O)N(CC)c2cc(C)cc(C)c2)s1
[10] O=C(CSc1nnc2n1CCCCC2)Nc1ccnn1C1CCCC1
[11] CCN(CC)C(=O)Cn1ncc2c3ccccc3n(Cc3ccc(F)cc3)c2c1=O
[12] COc1ccc2cc(C(C)c3nc4ccccc4n3C)ccc2c1 (stereo not given)
[13] COc1ccccc1NC(=O)c1nn(C)c2c1CS(=O)(=O)c1ccccc1-2
[14] COc1ccc(CNS(=O)(=O)c2ccc3c(c2)sc(=O)n3CC(=O)N2CCCC2)cc1
[15] NC(CCC(F)(F)F)C(=O)O (stereo not given)
[16] O=C(O)c1ccccc1C(=O)n1c(COc2ccc(Cl)cc2Cl)nc2ccccc21

compound no.,9,10,11,12,13,14,15,16
GIV Gai3 FP,102.5,x,103.2,105.2,101.3,107.5,109.4,106.0
Sa growth inh,110.3,96.6,74.3,124.2,118.2,x,102.6,130.4
Sa growth inh second temp,88.3,94.5,59.7,79.3,99.8,x,103.9,82.0
HCMV UL50-53 inh,-9.9,-14.9,-10.9,x,-2.8,-9.9,14.7,x

[17] COC(=O)c1cc2oc3ccccc3c2n1Cc1nc(-c2ccc(OC)cc2)oc1C
[18] CC1(C)C(=O)N(CC(=O)NC2CCCCC2)c2ccc(S(=O)(=O)N3CCCCC3)cc21
[19] Cc1ccc(-c2ccc(=O)n(Cc3cc(C)ccc3C)n2)cc1
[20] N#C/C(=N\Nc1ccc(C(=O)O)cc1)C(=O)c1ccccc1
[21] CCOC(=O)c1nc(NCCc2c[nH]c3ccc(Cl)cc23)c2c(C)noc2n1
[22] CCOC(=O)c1c(Nc2ccc(F)cc2)nnc(-c2ccccc2)c1-c1ccccc1
[23] CCOc1cc(C=C2C(=O)N(C)C(=O)N(C)C2=O)ccc1OCCOc1ccc(C)cc1
[24] C=CCn1c(=S)[nH]c2scc(-c3ccccc3Cl)c2c1=O

compound no.,17,18,19,20,21,22,23,24
GIV Gai3 FP,97.3,103.6,97.6,x,102.5,104.2,106.2,98.8
Sa growth inh,117.2,x,96.6,97.8,x,102.3,x,x
Sa growth inh second temp,85.4,x,87.8,84.4,x,81.6,x,x
HCMV UL50-53 inh,-11.6,-20.5,-31.7,-57.5,-15.5,-35.1,61.4*,5.6

# Random excerpt: 2 entries already listed, in no set order.
[24] C=CCn1c(=S)[nH]c2scc(-c3ccccc3Cl)c2c1=O
[19] Cc1ccc(-c2ccc(=O)n(Cc3cc(C)ccc3C)n2)cc1

compound no.,24,19
GIV Gai3 FP,98.8,97.6
Sa growth inh,x,96.6
Sa growth inh second temp,x,87.8
HCMV UL50-53 inh,5.6,-31.7

# Additional records
[25] Cc1ccc(C(N)=S)c(=O)[nH]1
[26] CCN1CCN(CCC(=O)Nc2ccccc2)CC1
[27] CCN(Cc1nc(-c2ccc(OC)c(OC)c2)no1)S(=O)(=O)c1ccc(OC)cc1
[28] CCN(C(=O)C1CCCN1S(=O)(=O)c1cc2c(cc1C)NC(=O)CO2)c1ccc(OC)cc1 (stereo not given)
[29] O=C(NC1CCS(=O)(=O)C1)/C(=C/c1ccccc1)NC(=O)c1ccccc1 (stereo not given)
[30] CCN(CC)C1=NC(=O)C(CC(=O)Nc2cccc(C(=O)OCC(=O)N(C)C3(C#N)CCCCC3)c2)S1 (stereo not given)
[31] Cc1cccc(C)c1NC(=O)/C=C/c1cccs1
[32] Cc1ccc(Cl)cc1Nc1nn2c(=O)c3ccc(C(=O)NC4CCCCC4)cc3nc2s1

compound no.,25,26,27,28,29,30,31,32
GIV Gai3 FP,107.3,x,92.6,108.1,x,x,98.4,103.9
Sa growth inh,91.0,84.2,98.6,x,98.2,87.8,80.7,102.2
Sa growth inh second temp,80.8,94.5,85.3,x,82.1,91.0,81.2,99.5
HCMV UL50-53 inh,-46.0,-16.1,-24.1,-1.4,-28.8,14.7,-31.5,x

# Entries shown so far that have a thiophene ring, fused or not:
[6] Nc1sc2c(c1C(=O)Nc1ccc(Cl)cc1)CCC2
[24] C=CCn1c(=S)[nH]c2scc(-c3ccccc3Cl)c2c1=O
[31] Cc1cccc(C)c1NC(=O)/C=C/c1cccs1

compound no.,6,24,31
GIV Gai3 FP,x,98.8,98.4
Sa growth inh,81.8,x,80.7
Sa growth inh second temp,53.5,x,81.2
HCMV UL50-53 inh,-10.1,5.6,-31.5

# Additional entries follow:
[33] C/C(COc1ccccc1O)=N\NC(N)=O
[34] COCC(C)NS(=O)(=O)c1ccc(N2CCCCS2(=O)=O)cc1 (stereo not given)
[35] c1ccc(-c2nnn3c2nc(N2CCOCC2)c2ccccc23)cc1
[36] COC(=O)c1ccc(NC(=O)CN(C)S(=O)(=O)c2ccc(Br)s2)cc1
[37] CCOc1nc2ccccc2nc1OCC
[38] CCOc1nnc(NS(=O)(=O)c2ccc(N)cc2)o1
[39] CC(C)CC(NS(=O)(=O)c1ccc2c(c1)oc(=O)n2C)C(=O)NCc1ccccc1Cl (stereo not given)
[40] O=C(CSc1nc2c(c(=O)[nH]1)CCC2)Nc1cccc(O)c1

compound no.,33,34,35,36,37,38,39,40
GIV Gai3 FP,x,97.4,105.0,99.8,101.9,99.0,106.2,101.4
Sa growth inh,94.4,87.3,95.5,103.0,107.6,21.4,112.1,106.4
Sa growth inh second temp,93.9,93.2,80.8,83.1,89.4,25.2,92.0,85.6
HCMV UL50-53 inh,-12.1,x,2.7,-14.2,5.5,-10.1,-4.0,-24.7

[41] Cc1ccc(-c2noc(-c3c[nH]c4ccc(S(=O)(=O)NC(C)C)cc4c3=O)n2)cc1
[42] COc1cc(C2=NOC(C(=O)N3CCN(c4ccc(F)cc4)CC3)C2)cc(OC)c1OC (stereo not given)
[43] C=CCn1c(C2COc3ccccc3O2)n[nH]c1=S (stereo not given)
[44] CCOc1ccc2cc(C3CC(c4ccc(Br)cc4)=NN3C(=O)CCC(=O)O)c(Cl)nc2c1 (stereo not given)
[45] c1ccc(-n2c(SCc3nc4ccccc4o3)nnc2C2CC2)cc1
[46] CCOc1ccc(Nc2nc(O)c(N=Nc3ccc(C(=O)O)cc3)s2)cc1
[47] COc1ccc(OC(=O)c2nc(SCc3ccc(C)cc3)ncc2Cl)cc1
[48] CCOC(=O)/C=C1\NC(=O)C(C)S1 (stereo not given)

compound no.,41,42,43,44,45,46,47,48
GIV Gai3 FP,100.2,102.2,x,100.2,x,x,107.1,x
Sa growth inh,102.2,112.3,92.4,x,75.7,87.9,103.7,112.5
Sa growth inh second temp,75.4,82.8,92.6,x,89.1,100.1,94.2,98.1
HCMV UL50-53 inh,-2.4,-22.5,3.0,-14.2,-25.3,-50.9,-18.2,10.8

[49] CCCN(CCC)c1cccc(C(=O)O)n1
[50] CC(C)(C)C(=O)Nc1ccc(C(=O)Oc2ccccc2)c(O)c1
[51] CCN(CC)C(=S)Oc1ccc(C(=O)Nc2cccc3ccccc23)cc1
[52] CC1(C)CC(=O)C(Sc2ncnc3nc[nH]c23)C(=O)C1
[53] COCCn1c(=O)sc2ccccc2c1=O
[54] C=CCN(C(=O)CSc1nc2ncccc2o1)c1ccccc1
[55] CCOC(=O)c1ccc(NC(=O)C(Sc2ccccc2)c2ccccc2)cc1 (stereo not given)
[56] OCCN/N=C/c1cccc(OC(F)F)c1

compound no.,49,50,51,52,53,54,55,56
GIV Gai3 FP,x,103.4,x,100.1,101.0,103.3,x,x
Sa growth inh,94.1,94.4,86.4,x,x,x,121.6,108.1
Sa growth inh second temp,98.3,53.9,91.2,x,x,x,74.2,95.6
HCMV UL50-53 inh,1.4,-14.5,-6.2,-10.8,0.2,-24.2,10.1,-8.4

[57] Cc1ccccc1N=C(NO)c1cccnc1
[58] Cc1cc(C)n2nc(Nc3ccccc3)c(C(N)=O)c2n1
[59] C(=NCc1ccco1)c1cn(-c2ccccc2)nc1-c1ccccc1
[60] Cc1ccc(CSc2nc3ccccc3c(=O)n2CCc2ccccc2)cc1
[61] CCc1ccc(NC(=O)CCn2c(C(F)(F)F)nc3cc(S(=O)(=O)N(C)C)ccc32)cc1
[62] COc1c2c(cc3c1C(CC(=O)c1ccccc1)N(C)CC3)OCO2 (stereo not given)
[63] Cc1cc(C(=O)COC(=O)c2ccccc2NS(C)(=O)=O)c(C)n1C1CC1
[64] COC(=O)c1ccccc1NC(=O)CSc1nc2ccc(N3C(=O)c4ccc([N+](=O)[O-])cc4C3=O)cc2s1

compound no.,57,58,59,60,61,62,63,64
GIV Gai3 FP,99.7,x,99.8,99.1,111.8,101.1,x,105.3
Sa growth inh,110.8,118.0,90.4,94.6,x,100.7,90.4,x
Sa growth inh second temp,73.1,84.8,91.7,85.0,x,100.8,89.5,x
HCMV UL50-53 inh,-0.9,-8.2,-20.7,x,-33.6,-7.0,-25.2,-33.1

[65] CCOC(=O)c1cnn(-c2ccc(Cl)nn2)c1/N=C/N(C)C
[66] O=C1OCCC1Sc1nc2ccccc2n1-c1ccccc1 (stereo not given)
[67] Clc1ccccc1OCCOc1ncnc2sccc12
[68] CCN(CC)CCn1c(C)c(C)c2c1ncn1nc(-c3ccccc3Br)nc21
[69] CCOc1ccc(-c2cc(C(=O)NCc3ccccc3)c3c(-c4ccc(CC)cc4)[nH]nc3n2)cc1
[70] CCOC(=O)C1=C(C)N=c2s/c(=C/c3ccc(OC(C)=O)c(OCC)c3)c(=O)n2C1c1ccccc1 (stereo not given)
[71] CCOC(=O)Nc1nc2c(F)c(F)c(F)cc2s1
[72] COc1cc(NS(=O)(=O)c2cc(Br)cc3c2N(C(=O)C2CC2)CC3)cc(OC)c1

compound no.,65,66,67,68,69,70,71,72
GIV Gai3 FP,x,x,x,102.7,102.0,110.2,x,108.4
Sa growth inh,90.4,114.3,119.5,x,83.1,x,122.8,114.7
Sa growth inh second temp,91.7,74.2,103.0,x,87.9,x,77.0,99.2
HCMV UL50-53 inh,-18.8,-38.1,-2.1,-5.6,x,-13.8,-15.8,x

[73] Fc1ccc(C(c2nnnn2C2CCCC2)N(Cc2ccccc2)Cc2ccco2)cc1 (stereo not given)
[74] COc1ccc(-c2noc(CCC(=O)N(C)c3ccccc3C)n2)cc1
[75] O=C(Nc1cccc(C(F)(F)F)c1)c1cc2ccc3cccnc3c2[nH]1
[76] COc1ccc(C2Oc3ccccc3C3CC(c4ccc(C)o4)=NN32)cc1OC (stereo not given)
[77] CCn1c(=O)cc(OCC(=O)N2CCN(c3ccc(C(C)=O)cc3)CC2)c2ccccc21
[78] Cc1ccc(C)c(C(=O)OCC(=O)N(C)c2ccccc2)c1
[79] Cc1ccccc1OCC(=O)N1CCOCC1
[80] CC(=O)N1CCc2cc(Br)cc(S(=O)(=O)N3CCCC3)c21

compound no.,73,74,75,76,77,78,79,80
GIV Gai3 FP,103.7,104.8,98.3,x,105.0,x,99.4,97.8
Sa growth inh,91.1,107.8,82.6,73.5,94.3,124.4,101.1,107.9
Sa growth inh second temp,81.5,91.8,98.1,72.4,94.2,88.2,77.5,93.4
HCMV UL50-53 inh,-25.6,-14.5,x,-23.3,17.2,-25.0,0.8,x

[81] CC(C)(C)NC(=O)CCSc1nc(-c2ccc3c(c2)OCO3)cc(C(F)(F)F)n1
[82] O=C(CN1CCN(Cc2cccc(Cl)c2)C1=O)N1CCCC1
[83] O=C1OC2(CCCCC2)OC(=O)C1=Cc1ccoc1
[84] Cc1ccccc1Cn1c2ccccc2c2cnn(CC(=O)NCC3CCCO3)c(=O)c21 (stereo not given)
[85] O=C(CSc1nc2ccccc2n1CCc1ccccc1)N1CCOCC1
[86] COCCCn1c(SCC(=O)Nc2ccc(F)cc2)nc2c(sc3ccccc32)c1=O

compound no.,81,82,83,84,85,86
GIV Gai3 FP,102.7,103.4,110.4,105.3,x,105.9
Sa growth inh,79.8,97.4,91.9,94.5,121.3,96.5
Sa growth inh second temp,91.8,98.8,82.0,90.7,91.0,96.5
HCMV UL50-53 inh,-17.5,-5.8,13.8,5.3,-29.1,x

# Assay outcomes from PubChem BioAssay.

# This is a random part of the collection, and some 0.83% of all compounds hit somewhere here.
